NOMO-1 viab – NOMO-1 AML cell viability reduction, primary screen, STK33 inhibitor project, CellTiter-Glo luminescence. NOMO-1 AML viability, 72 h. inhibition, % (test concentration not listed). actives 7.5% (n = 37,000);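 active = most replicates above 80%; inconclusive = exactly half above 80%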;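 also: wells of about 30 µL received 25 nL stock; 0% = median of vehicle wells and 100% = reference inhibitor level; the first replicate is given; inactives centre near 10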
An asterisk follows results filed as active; ? = inconclusive. Only part of the results is shown; the hit share may differ from the screen's.

Molecule	NOMO-1 viab
C/C(CCc1oc2ccccc2c1-c1ccc(C)o1)=N\O	108*
OC(CN1CCN(c2cccc(Cl)c2)CC1)C(c1ccccc1)c1ccccc1 (stereo unspecified)	17
COC(=O)c1cccc(O)c1C(=O)c1c(O)cc(C)cc1O	3
COc1ccc(C)cc1S(=O)(=O)N(CC(=O)O)c1ccccc1	-1
C[C@H](CO)N1C[C@H](C)[C@H](CN(C)C(=O)Nc2ccc(C(F)(F)F)cc2)Oc2c(NC(=O)C3CCCCC3)cccc2C1=O	95*
C[C@@H]1CN([C@H](C)CO)C(=O)Cc2cc(NC(=O)NC3CCCCC3)ccc2O[C@@H]1CN(C)Cc1ccc(C(=O)O)cc1	4
C[C@H]1CN([C@@H](C)CO)C(=O)c2cccc(NS(C)(=O)=O)c2O[C@@H]1CN(C)S(=O)(=O)c1cccs1	22
C[C@@H]1CN([C@@H](C)CO)C(=O)Cc2cc(NC(=O)Cc3ccccc3)ccc2O[C@@H]1CN(C)C(=O)Nc1cccc2ccccc12	13
CC(C)(C)c1ccc(OCC(=O)N(c2ccccn2)C2CCCCC2)cc1	44
C[C@@H]1CN([C@H](C)CO)C(=O)c2cccc(NS(=O)(=O)c3cccs3)c2O[C@@H]1CN(C)Cc1ccc(C(=O)Nc2ccccc2N)cc1	138*
COc1ccc(S(=O)(=O)Nc2cccc3c2O[C@H](CN(C)C(=O)Nc2cccc4ccccc24)[C@H](C)CN([C@H](C)CO)C3=O)cc1	5
C[C@@H]1CN([C@@H](C)CO)C(=O)c2cccc(NC(=O)c3cnccn3)c2O[C@@H]1CN(C)Cc1ccc(C(=O)Nc2ccccc2N)cc1	129*
COc1ccc(NC(=O)N(C)C[C@H]2Oc3c(NS(=O)(=O)c4ccc(F)cc4)cccc3C(=O)N([C@H](C)CO)C[C@@H]2C)cc1	4
C=CCn1c(CSc2nc(N)cc(N)n2)n[nH]c1=S	2
CNC[C@H]1Oc2ccc(NC(=O)NC3CCCCC3)cc2C(=O)N([C@H](C)CO)C[C@H]1C	-6
C[C@H](CO)N1C[C@H](C)[C@H](CN(C)Cc2ccc(Oc3ccccc3)cc2)Oc2ccc(NC(=O)Nc3ccc(C(F)(F)F)cc3)cc2C1=O	114*
C[C@H](CO)N1C[C@H](C)[C@H](CN(C)Cc2ccncc2)Oc2ccc(NS(=O)(=O)c3ccc(F)cc3)cc2CC1=O	8
Cc1noc(C)c1NC(=O)Nc1ccc2c(c1)CC(=O)N([C@H](C)CO)C[C@@H](C)[C@@H](CN(C)S(=O)(=O)c1ccc(F)cc1)O2	10
C[C@@H]1CN([C@H](C)CO)C(=O)Cc2cc(NS(C)(=O)=O)ccc2O[C@H]1CN(C)Cc1ccc(C(=O)Nc2ccccc2N)cc1	22
C[C@@H]1CN([C@H](C)CO)C(=O)c2cc(NC(=O)c3ccncc3)ccc2O[C@@H]1CN(C)S(=O)(=O)c1ccc(Cl)cc1	14
COc1ccc(NC(=O)Nc2ccc3c(c2)C(=O)N([C@H](C)CO)C[C@@H](C)[C@@H](CN(C)C)O3)cc1	28
Cc1noc(C)c1S(=O)(=O)N(C)C[C@H]1Oc2ccc(NC(=O)C3CC3)cc2CC(=O)N([C@H](C)CO)C[C@H]1C	-19
O=C(NCc1cccnc1)C1CC(c2ccc(Cl)c(Cl)c2)=NO1 (stereo unspecified)	34
O=C(CSc1n[nH]c(-c2ccc(Cl)cc2Cl)n1)Nc1cccc2ccccc12	-5
COc1ccc(S(=O)(=O)N(C)C[C@@H]2OCCCC[C@@H](C)Oc3ccc(NC(=O)CCCCCC(=O)Nc4ccccc4N)cc3C(=O)N([C@H](C)CO)C[C@@H]2C)cc1	17
O=C1CNC(=S)N1CCc1ccccc1	37
COc1ccc(S(=O)(=O)Nc2ccc3c(c2)C(=O)N([C@H](C)CO)C[C@H](C)[C@@H](CN(C)S(=O)(=O)c2ccc(C)cc2)OCCCC[C@@H](C)O3)cc1	48
COC(=O)c1ccccc1NC(=O)CN(c1ccc(F)cc1)S(C)(=O)=O	-5
C[C@H](CO)N1C[C@H](C)[C@H](CN(C)Cc2ccc(-c3ccccc3)cc2)Oc2ccc(NS(=O)(=O)c3cccs3)cc2C1=O	22
COc1ccc(CN(C)C[C@H]2Oc3c(NC(=O)Nc4ccc(OC)cc4)cccc3C(=O)N([C@H](C)CO)C[C@@H]2C)cc1	42
COc1ccc(C(=O)NCCn2cc(SCC(=O)N3CCCCC3)c3ccccc32)cc1	76
O=C(NCc1ccco1)c1ccccc1NC(=O)C1CC(=O)N(c2ccc(Cl)cc2)C1 (stereo unspecified)	-7
C[C@@H]1CN([C@H](C)CO)C(=O)Cc2cc(NC(=O)CCC(F)(F)F)ccc2O[C@@H]1CN(C)C	7
C[C@H]1CN([C@@H](C)CO)C(=O)c2cc(NC(=O)CCCN(C)C)ccc2O[C@H]1CN(C)C(=O)NC1CCCCC1	-15
CCCN(Cc1cc2cccc(C)c2[nH]c1=O)C(=O)c1cccc(Cl)c1	14
Cc1cc(NS(=O)(=O)c2ccc(NS(=O)(=O)c3cccs3)cc2)nc(C)n1	2
COc1cc(S(=O)(=O)NCc2ccccn2)c(OC)cc1Cl	-11
CCOc1ccc2nc(SCC(=O)Nc3ccc4c(c3)OCCO4)sc2c1	-1
COCCNS(=O)(=O)c1cc([N+](=O)[O-])ccc1C	34
NNC(=O)c1cc2c(s1)-c1ccccc1CC2	42
CCOC(=O)C1CCCCN1Cc1cccc(OC)c1OC (stereo unspecified)	-21
NCCCC[C@H](N)C(=O)N[C@@H](Cc1ccccc1)C(=O)N[C@@H](Cc1ccc(O)cc1)C(=O)O	3
COc1cccc(OC)c1C(=O)Nc1cccc(-c2nc3ncccc3o2)c1	13
CC(C)NC(=O)Nc1cccc2c1O[C@H](CN(C)S(=O)(=O)c1ccc(Cl)cc1)[C@@H](C)CN([C@@H](C)CO)C2=O	3
COc1ccc(S(=O)(=O)Nc2ccc3c(c2)C(=O)N([C@@H](C)CO)C[C@@H](C)[C@@H](CN(C)C(=O)Nc2c(C)noc2C)O3)cc1	2
COc1ccc(NC(=O)Nc2ccc3c(c2)CC(=O)N([C@H](C)CO)C[C@@H](C)[C@H](CN(C)Cc2ccc(-c4ccccc4)cc2)O3)cc1	?
Cc1noc(C)c1NC(=O)Nc1cccc2c1O[C@@H](CN(C)Cc1ccc(C(F)(F)F)cc1)[C@@H](C)CN([C@H](C)CO)C2=O	4
C[C@@H]1CN([C@H](C)CO)C(=O)c2cc(NC(=O)C3CC3)ccc2O[C@H]1CN(C)Cc1ccc(Oc2ccccc2)cc1	-21

Cc1cc(C)nc(/N=C2\NC(=O)CC(C(=O)O)N2c2cccc(C(F)(F)F)c2)n1 (stereo unspecified)
  NOMO-1 viab: -31
COc1ccc(NC(=O)Nc2ccc3c(c2)C(=O)N([C@H](C)CO)C[C@H](C)[C@H](CN(C)S(=O)(=O)c2ccc(C)cc2)OCCCC[C@@H](C)O3)cc1
  NOMO-1 viab: 10
CN1C2=C(C(=O)CC(C)(C)C2)C(c2ccccc2OCC(=O)Nc2ccc(F)cc2)C2=C1CC(C)(C)CC2=O
  NOMO-1 viab: 44
COc1ccc(NC(=O)CSc2nnc(C)s2)c([N+](=O)[O-])c1
  NOMO-1 viab: 5
C[C@@H]1CN([C@H](C)CO)C(=O)c2cc(NC(=O)Cc3cn(C)c4ccccc34)ccc2O[C@@H]1CN(C)C(=O)Nc1cccc2ccccc12
  NOMO-1 viab: 99*
C[C@H](CO)N1C[C@H](C)[C@H](CN(C)Cc2ccc(Cl)c(Cl)c2)Oc2ccc(NS(=O)(=O)c3ccccc3)cc2CC1=O
  NOMO-1 viab: 68
COc1ccc(-c2csc(NCc3ccccc3)n2)cc1
  NOMO-1 viab: 22
Cc1noc(C)c1NC(=O)N(C)C[C@H]1Oc2c(NS(=O)(=O)c3c(C)noc3C)cccc2C(=O)N([C@@H](C)CO)C[C@H]1C
  NOMO-1 viab: 8
COC(=O)c1ccccc1NC(=O)CSc1nnnn1-c1cccc2ccccc12
  NOMO-1 viab: -1
CC(C)NC(=O)Nc1ccc2c(c1)C(=O)N([C@H](C)CO)C[C@H](C)[C@@H](CN(C)C(=O)CCCN(C)C)OCCCC[C@@H](C)O2
  NOMO-1 viab: -15

COc1cc([C@H]2OC[C@H]3[C@@H]2CO[C@@H]3c2ccc(OC)c(OC)c2)ccc1O
  NOMO-1 viab: 21
C[C@@H]1CN([C@H](C)CO)C(=O)c2cc(NC(=O)c3ccncc3)ccc2O[C@H]1CN(C)S(C)(=O)=O
  NOMO-1 viab: 30
C[C@@H]1CCCCO[C@@H](CN(C)C(=O)c2ccccc2)[C@@H](C)CN([C@H](C)CO)C(=O)c2cc(NC(=O)c3ccncc3)ccc2O1
  NOMO-1 viab: -7
Cn1c(=O)[nH]c(=O)c2c1ncn2CC(=O)NCc1ccccc1
  NOMO-1 viab: -9
Cc1ccc(S(=O)(=O)NCCSc2nnnn2-c2cc(C)ccc2C)cc1
  NOMO-1 viab: 33
O=[N+]([O-])c1nn(-c2ccccc2)n(O)c1=NC1CCN(Cc2ccccc2)CC1
  NOMO-1 viab: 114*
COc1cccc(NC(=O)CSc2nnc(-c3ccccc3F)n2-c2ccccc2)c1
  NOMO-1 viab: 6
C[C@@H]1CN([C@H](C)CO)C(=O)c2cc(NC(=O)CCCN(C)C)ccc2O[C@@H]1CN(C)S(=O)(=O)c1cn(C)cn1
  NOMO-1 viab: 0
C[C@@H]1CN([C@H](C)CO)C(=O)c2cc(NS(=O)(=O)c3ccccc3)ccc2O[C@@H]1CN(C)S(=O)(=O)c1cccs1
  NOMO-1 viab: 5
CNC[C@@H]1Oc2ccc(NS(=O)(=O)c3ccc(Cl)cc3)cc2CC(=O)N([C@@H](C)CO)C[C@@H]1C
  NOMO-1 viab: -13

Sorted by formula weight (low to high): seven of the compounds above.
COc1cc([C@H]2OC[C@H]3[C@@H]2CO[C@@H]3c2ccc(OC)c(OC)c2)ccc1O
  NOMO-1 viab: 21
COc1cccc(NC(=O)CSc2nnc(-c3ccccc3F)n2-c2ccccc2)c1
  NOMO-1 viab: 6
C[C@@H]1CN([C@H](C)CO)C(=O)c2cc(NC(=O)c3ccncc3)ccc2O[C@H]1CN(C)S(C)(=O)=O
  NOMO-1 viab: 30
CNC[C@@H]1Oc2ccc(NS(=O)(=O)c3ccc(Cl)cc3)cc2CC(=O)N([C@@H](C)CO)C[C@@H]1C
  NOMO-1 viab: -13
C[C@@H]1CN([C@H](C)CO)C(=O)c2cc(NC(=O)CCCN(C)C)ccc2O[C@@H]1CN(C)S(=O)(=O)c1cn(C)cn1
  NOMO-1 viab: 0
C[C@@H]1CN([C@H](C)CO)C(=O)c2cc(NS(=O)(=O)c3ccccc3)ccc2O[C@@H]1CN(C)S(=O)(=O)c1cccs1
  NOMO-1 viab: 5
C[C@@H]1CCCCO[C@@H](CN(C)C(=O)c2ccccc2)[C@@H](C)CN([C@H](C)CO)C(=O)c2cc(NC(=O)c3ccncc3)ccc2O1
  NOMO-1 viab: -7

Next section.
C[C@H](CO)N1C[C@H](C)[C@H](CN(C)S(=O)(=O)c2ccccc2)Oc2ccc(NC(=O)CCN3CCOCC3)cc2CC1=O
  NOMO-1 viab: 1
COc1ccc(OC)c(C(=O)c2coc3ccc(O)cc23)c1
  NOMO-1 viab: 136*
O=C(CSc1ncnc2scc(-c3ccc(Cl)cc3)c12)NCC1CCCO1 (stereo unspecified)
  NOMO-1 viab: 6
C[C@H]1CN([C@@H](C)CO)C(=O)c2cccc(NC(=O)NC3CCCCC3)c2O[C@@H]1CN(C)CC1CC1
  NOMO-1 viab: 26
C[C@H](CO)N1C[C@H](C)[C@@H](CN(C)S(=O)(=O)c2cccs2)Oc2ccc(NC(=O)CCCN(C)C)cc2C1=O
  NOMO-1 viab: 13
C[C@@H]1CCCCO[C@H](CN(C)Cc2ccc(C(=O)O)cc2)[C@@H](C)CN([C@H](C)CO)C(=O)c2cc(NC(=O)c3ccncc3)ccc2O1
  NOMO-1 viab: 13
Cc1cc(C(=O)Nc2cccc3c2O[C@@H](CN(C)CC2CCCCC2)[C@H](C)CN([C@@H](C)CO)C3=O)n(C)n1
  NOMO-1 viab: 63
O=C(NCCc1c[nH]c2ccccc12)NC12CC3CC(CC(C3)C1)C2
  NOMO-1 viab: 43
C[C@H]1CN([C@@H](C)CO)C(=O)c2cccc(NC(=O)c3ccc(-c4nccs4)cc3)c2O[C@H]1CN(C)S(=O)(=O)c1ccccc1
  NOMO-1 viab: 30
CC(C)NC(=O)Nc1ccc2c(c1)C(=O)N([C@H](C)CO)C[C@H](C)[C@@H](CN(C)Cc1ccc(Cl)c(Cl)c1)OCCCC[C@@H](C)O2
  NOMO-1 viab: 25

C[C@H](CO)N1C[C@H](C)[C@H](CN(C)CC2CC2)Oc2ccc(NC(=O)c3ccncc3)cc2C1=O
  NOMO-1 viab: 23
CC(C)Cc1cnc(CCC(N)=O)c(=O)[nH]1
  NOMO-1 viab: -15
CO[C@@H]1[C@@H](OC(N)=O)[C@@H](O)C(Oc2ccc3c(O)c(NC(=O)c4ccc(O)c(CC=C(C)C)c4)c(=O)oc3c2C)OC1(C)C (stereo partly specified)
  NOMO-1 viab: -15
COc1cc(O)c(CCO)c2c1C(=O)C[C@@H](C)O2
  NOMO-1 viab: -14
C[C@@H]1CN([C@@H](C)CO)C(=O)c2cccc(N(C)C)c2O[C@@H]1CN(C)Cc1ccc(Oc2ccccc2)cc1
  NOMO-1 viab: 23
Cc1cc(NC(=O)CSc2nnnn2-c2ccccc2)ccc1Cl
  NOMO-1 viab: 4
C[C@H]1CN([C@@H](C)CO)C(=O)Cc2cc(NS(=O)(=O)c3ccccc3)ccc2O[C@@H]1CN(C)S(=O)(=O)c1ccc(F)cc1
  NOMO-1 viab: 0
OC(Cc1ccccc1)(c1ccccc1)c1ccccc1N=Cc1ccc2c(c1)OCO2 (stereo unspecified)
  NOMO-1 viab: 91*
C[C@H](CO)N1C[C@H](C)[C@@H](CN(C)C(=O)Nc2ccc(C(F)(F)F)cc2)Oc2ccc(NC(=O)CCN3CCOCC3)cc2C1=O
  NOMO-1 viab: 14
C[C@H](CO)N1C[C@H](C)[C@H](CN(C)S(=O)(=O)c2ccc(F)cc2)Oc2ccc(NC(=O)CCN3CCOCC3)cc2CC1=O
  NOMO-1 viab: -17

High-throughput results (PubChem)
